Cruzain Triton = inhibitors of Trypanosoma cruzi cruzain with detergent | P25779 | purified cruzain, Z-FR-AMC fluorescence, 0.01% Triton | Potency, µM, without a hit: max response, negative = inhibition, usual class: inhibitors | 200,000 compounds, 0.43% hits;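 also: plate controls were neutral wells for no effect and buffer without enzyme for full effect; nearly all actives have a fitted effect of over 40% in size; top concentration of the series not given in the record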
Target sequence (P25779 123-467 limits assumed): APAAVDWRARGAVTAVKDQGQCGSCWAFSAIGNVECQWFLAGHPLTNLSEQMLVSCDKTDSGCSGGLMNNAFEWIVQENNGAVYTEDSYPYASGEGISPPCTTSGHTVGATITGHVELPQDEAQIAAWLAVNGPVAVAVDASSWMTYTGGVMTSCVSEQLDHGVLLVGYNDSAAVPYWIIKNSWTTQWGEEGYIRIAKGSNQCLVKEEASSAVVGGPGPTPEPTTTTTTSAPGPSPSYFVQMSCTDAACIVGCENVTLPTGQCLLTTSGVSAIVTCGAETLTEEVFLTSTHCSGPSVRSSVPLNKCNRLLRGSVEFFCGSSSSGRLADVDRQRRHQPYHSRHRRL
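Detergent-containing run (0.01% Triton X-100) in acetate buffer pH 5.5 with 5 mM DTT: enzyme at 1.5 nM final, 15 min compound preincubation at room temperature, then 2 uM Z-FR-AMC substrate. Activity taken as 60 s fluorescence increase at 360/450 nm.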
SARS PLpro yeast = blocks SARS-CoV papain-like protease in a yeast assay; Potency, µM (top dose mostly 32.9 µM), inactives show top-dose activity, positive = growth rescue; 330,000 compounds, 0.19% hits; S. cerevisiae expressing SARS-CoV PLpro, growth rescue; control for the full effect not named in the record; active means well fitted rising curve with a large enough effect; inconclusive means small, poorly fitted or top-dose-only effect; inactive means no such curve, though single readings can be large or run the other way; also: 0% is about no effect; nearly all actives have a fitted effect of over 55% in size; growth read by luminescence after 48 h
RE007 growth inh = less growth of the S. pombe RE007 Vpr strain | AID 651644 | S. pombe RE007 Vpr strain, BacTiter-Glo ATP luminescence, 24 h; control for the full effect not named in the record | Potency, µM (titrated, usually from 92.2 µM), for the others: at the top dose activity change, negative = less growth | 360,000 compounds, 0.21% hits; active = well fitted falling curve with a large enough effect; inconclusive = small, poorly fitted or top-dose-only effect; inactive = no such curve, though single readings can be large or run the other way;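 also: % is scaled to controls: 0 for no effect and ±100 for the full control effect; nearly all actives have a fitted effect of over 50% in size; the assay follows cell death caused by Vpr and the record does not say whether a fall means rescue or toxicity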
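Fission yeast RE007 carrying one integrated HIV-1 vpr copy, seeded at OD 0.01 in PMG+AL medium with 23 nL pinned compound. Grown 24 h at 30 degrees; viability read by BacTiter-Glo luminescence after 5 min.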
NS1 function inh = inhibitors of influenza NS1 protein function; S. cerevisiae slowed by influenza A NS1, growth recovery by OD600; Potency, µM (doses to about 46.1 µM), inactives show top-dose activity, positive = more growth; 270,000 compounds, 0.4% hits; active means well fitted rising curve with a large enough effect; inconclusive means small, poorly fitted or top-dose-only effect; inactive means no such curve, though single readings can be large or run the other way; also: nearly all actives have a fitted effect of over 50% in size
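In this qHTS, NS1 from influenza A is expressed in budding yeast, where it slows growth. Cells are switched from glucose to 2% galactose medium (pH 6.0, -URA), treated with compound, and growth recovery is read at OD600.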
Marburg entry inh = blocks Marburg virus binding to or entry into cells. Marburg virus pseudotyped entry inhibition, cell reporter; control for the full effect not named in the record; about a third of the inactives were read at about 46 µM. Potency, µM (doses to about 37.8 µM), for inactives: top-dose activity change, negative = inhibition, hits mostly inhibitors. 300,000 compounds, 1.8% hits. AID 540276; active = well fitted inhibition curve with a large enough effect; inconclusive = small, poorly fitted or top-dose-only effect, or effect the other way; inactive = flat fitted curve, though single readings scatter; tested in HEK293 cells; about a fifth of its hits are not listed in these tables; also: % is scaled to controls: 0 for no effect and ±100 for the full control effect; luciferase read-out
Cruzain noTriton = cruzain (T. cruzi) inhibition without detergent; purified cruzain, Z-FR-AMC fluorescence, no detergent; Potency, µM, for the others: max response, negative = inhibition, most hits filed as inhibitors; 200,000 compounds, 2.3% hits;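 also: plate controls were enzyme without inhibitor for no effect and buffer without enzyme for full effect; nearly all actives have a fitted effect of over 40% in size; top concentration of the series not given in the record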
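Purified cruzain at 1.5 nM, pre-incubated 15 min with compound at room temperature in 100 mM sodium acetate pH 5.5, 5 mM DTT, 0.00005% Triton X-100. Reaction started with 2 uM Z-FR-AMC; AMC fluorescence increase over 60 s gives rate.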
2A StopGo = FMDV 2A StopGo reporter, luciferase signal; human cells with a luciferase reporter of 2A StopGo recoding; control for the full effect not named in the record; Potency, µM (top dose mostly 57.9 µM), without a hit: top-dose signal change, negative = less light; 410,000 compounds, 1.2% hits; AID 1159524; active = well fitted falling curve with a large enough effect; inconclusive = small, poorly fitted or top-dose-only effect; inactive = no such curve, though single readings can be large or run the other way; tested in HEK293T cells; also: % is scaled to controls: 0 for no effect and ±100 for the full control effect; nearly all actives have a fitted effect of over 45% in size; luciferase light after 4 h
Lassa entry inh = Lassa virus entry inhibition; AID 540256; Potency, µM (top dose mostly 37.9 µM), for inactives: at the top dose activity change, negative = inhibition, most hits filed as inhibitors; 300,000 compounds, 1.2% hits; Lassa virus pseudotype entry inhibition, cell reporter; control for the full effect not named in the record; active means well fitted inhibition curve with a large enough effect; inconclusive means small, poorly fitted or top-dose-only effect, or effect the other way; inactive means flat fitted curve, though single readings scatter; tested in HEK293 cells; also: % is scaled to controls: 0 for no effect and ±100 for the full control effect; nearly all actives have a fitted effect of over 50% in size; luciferase read-out
The depositor's hits bear a star; ? = inconclusive; . = not tested or not shown; [ ] = dose if it differs, or a comment. Unless noted, calls follow the shape of the dose curve; as a rule, active = well fitted curve in the direction sought with a large enough effect; inconclusive = small, poorly fitted or top-dose-only effect, or another doubt; inactive = no such curve, though single readings can be large; an effect the other way counts as inactive or inconclusive. Potency is read from the fitted curve at half-maximal effect.

Values run as follows: Cruzain Triton | SARS PLpro yeast | RE007 growth inh | NS1 function inh | Marburg entry inh | Cruzain noTriton | 2A StopGo | Lassa entry inh
CC1(C)CC(=O)c2sc(NC(=O)CCS(=O)(=O)c3ccccc3)nc2C1
 : -4.4% | 0% | 4% | -11% | . | -6% | -8% | .
C=CCN1C(=O)CN=C1Nc1ccc(F)cc1
 : . | 1% | 5% | -6% | 0%[46.1 µM] | . | 5% | 3%
O=S(=O)(NC1=NCCCCCC1)c1cccs1
 : 3.4% | 2% | -4% | 2% | 7% | -5% | . | 11%
COc1ccc(NC(=O)Cn2c(=O)n(-c3ccccc3)c(=O)c3c4c(sc32)CCCC4)cc1
 : -1.3% | . | . | . | -2%[46.1 µM] | 3% | -21% | 19%[46.1 µM]
CN(C)CCCNc1cc(N2CCN(C3CCCCC3)CC2)c2noc3c2c1C(=O)c1ccccc1-3
 : -4.7% | . | . | . | ? | 6% | -16% | .
O=S(=O)(c1ccccc1)N1N=C(c2cccs2)CC1c1cccc(O)c1 (configuration not stated)
 : . | . | -3% | 6% | -2%[46.1 µM] | . | 3% | ?
O=C(COc1ccc(Cl)cc1)Nc1ccc2oc(-c3ccncc3)nc2c1
 : -20% | -4% | 3% | -8% | -4% | -2% | -21% | -13%
CC1CC(C)CN(C(=O)c2ccc(S(=O)(=O)N3CCCC3)cc2)C1 (configuration not stated)
 : . | -6% | 10% | 1% | -8% | . | -8% | -8%
COC(=O)Cc1ccc(NC(=O)c2ccc(Br)o2)cc1
 : -8.0% | -4% | -28% | -26% | -10% | 6% | 19% | -1%
O=c1c2cc(Br)cc(Br)c2oc2nc3n(c(=O)c12)CCCS3
 : -4.8% | 5% | . | 8% | . | -10% | . | .
NC(=S)N/N=C/C=C/c1ccccc1
 : 25µM* | 1.6µM* | 13% | -22% | -3% | 16µM* | 16% | 14%
Cc1ccc(N2C(=O)N(CC(=O)Nc3ccc(F)c(F)c3)C(=O)C2C)cc1 (configuration not stated)
 : . | -1% | -4% | . | ? | . | 28% | 2%[46.1 µM]
CCOC(=O)c1ccc(NC(=O)CNC(=O)C23CC4CC(CC(C4)C2)C3)cc1
 : -0.3% | -3% | 4% | 1% | -8% | 4% | ? | 17%
Cc1ccc2[nH]c(=O)c(CN(Cc3cccs3)C(=S)NCC3CCCO3)cc2c1 (configuration not stated)
 : -9.5% | 0% | . | 1% | ? | 23% | 0% | -19%
CN(Cc1ccccc1)C(=O)Cn1c(=O)oc2cc(S(=O)(=O)N3CCCC3)ccc21
 : -1.4% | 4% | 8% | 0% | 0% | -1% | -25% | .
CCN(C(=S)Nc1cccnc1)c1ccccc1
 : . | -1% | -2% | 5% | 1%[46.1 µM] | . | -11% | 11%
O=C(NNC(=O)c1cc2ccccc2cc1O)Nc1ccc(F)cc1F
 : . | 4% | 3% | 14% | -2% | . | -2% | -6%
CCCn1c(COc2ccccc2)nc2ccccc21
 : . | 2% | -7% | -45% | ? | . | -9% | 11%
Cc1ccc2c(COC(=O)c3ccccc3Br)cc(=O)oc2c1
 : . | 4% | -7% | -14% | ? | . | 5% | -15%[46.1 µM]
O=C(Nc1cccc2ncccc12)c1cc([N+](=O)[O-])ccc1Cl
 : . | -1% | 7% | 2% | 7%[46.1 µM] | . | ? | 1%[46.1 µM]
COc1ccccc1Nc1nc(Cl)c(C=O)s1
 : . | -7% | 9% | . | -22%[46.1 µM] | . | 6% | -24%
O=C(NCc1ccccc1Cl)C1CCN(S(=O)(=O)N2CCOCC2)CC1
 : . | -4% | 1% | . | 13% | . | 20% | 6%
Clc1ccc2nc(NC3=NCN(CCN4CCOCC4)CN3)nc(-c3ccccc3)c2c1
 : 6.3% | -2% | . | 21% | . | 12% | . | .
Cc1cccn2c(=O)c(/C=N/O)c(N3CCCCC3)nc12
 : -2.6% | -3% | 10% | -4% | 7% | 9% | . | -3%
CCc1cccc(C)c1NC(=O)CCn1c(=O)c2cccn2c2ccccc21
 : -5.9% | . | . | . | . | ? | -14% | ?
CCc1ccc(C(=O)NNC(=O)c2c(CC)noc2C)cc1
 : . | ? | 27% | . | -2%[46.1 µM] | . | 11% | 21%
O=C(COC(=O)CCC(=O)c1ccc(F)cc1)Nc1cccc(S(=O)(=O)N2CCOCC2)c1
 : . | 1% | 12% | -2% | 21%[46.1 µM] | . | -7% | 14%[46.1 µM]
O=C(O)Cn1nnnc1SCC(=O)Nc1ccc(F)cc1F
 : . | 0% | -10% | 2% | 1%[46.1 µM] | . | -10% | 11%[46.1 µM]
COc1ccc(NC(=O)CCN2CCC(C)CC2)cc1
 : 1.8% | -5% | 8% | 2% | 12% | 0% | 6% | -9%
N#Cc1nc(-c2cccs2)oc1N1CCN(c2ccccc2)CC1
 : ? | -3% | 16% | ? | ? | ? | -19% | -1%
CCOc1ccc(NC(=O)CS(=O)CC(=O)N(CC(=O)NC(C)(C)C)C2CCCC2)cc1 (configuration not stated)
 : . | 1% | 9% | -11% | 19%[46.1 µM] | . | 8% | -5%[46.1 µM]
Cc1ccc(C)c(S(=O)(=O)N(C)C2(C)CCS(=O)(=O)C2)c1 (configuration not stated)
 : . | -1% | 4% | . | 1%[46.1 µM] | . | -16% | -1%
COc1ccc2[nH]c(C)c(CCNC(=S)Nc3ccccc3C)c2c1
 : -0.8% | 1% | 0% | -8% | -17% | -8% | 12% | ?
Cc1c(C2=CCN(S(=O)(=O)c3cccc(Cl)c3)CC2)c2ccccc2n1CC(=O)N1CCCC1
 : -5.4% | . | . | . | 20%[46.1 µM] | -3% | -11% | -1%[46.1 µM]
CCOC(=O)CCCNC(=O)CSc1nc2ccc(OCC)cc2[nH]1
 : . | 2% | -7% | 2% | -22%[46.1 µM] | . | -11% | -13%
O=C(COC(=O)CCc1nc2ccccc2c(=O)[nH]1)Nc1ccccc1
 : . | 2% | 6% | . | 17%[46.1 µM] | . | -9% | 20%[46.1 µM]
O=C(CCNC(=O)c1ccccc1Cl)Nc1ccccc1N1CCCC1
 : . | 17% | 3% | 0% | 0%[46.1 µM] | . | -8% | 9%[46.1 µM]
Cc1ccc(NC(=O)C(=O)NCCCN2CCOCC2)c(C)c1
 : . | -1% | 1% | -3% | ? | . | 4% | -1%[46.1 µM]
CN1CC(=O)N(CC(=O)Nc2ccc(Cl)c(C(F)(F)F)c2)c2ccccc2C1=O
 : -2.8% | . | . | . | . | 5% | -35% | 9%[46.1 µM]
CCCC(=O)Nc1ccccc1-c1nnn(CC(=O)Nc2ccc(OCC)cc2)n1
 : -0.1% | -12% | -12% | -2% | -5% | -21% | -11% | 4%
CCCCNC(=O)Nc1ccc(C(O)(C(=O)OCC)C(F)(F)F)cc1 (configuration not stated)
 : 0.2% | 3% | -4% | 0% | -1% | -8% | 13% | ?
COc1cc2c(cc1OC)C(Cc1ccc(O)cc1)N(C)CC2 (configuration not stated)
 : -1.2% | 26% | 4% | 0% | -8% | -6% | -13% | 0%
COc1ccc(C(=O)NNC(=S)NC(=O)c2ccc(OC)cc2)cc1
 : . | -9% | -11% | -72% | . | . | -11% | .
CCn1c(CNC(=O)C23CC4CC(CC(C4)C2)C3)nnc1SCC(=O)Nc1ccc(C)cc1
 : 1.1% | . | . | . | -19%[46.1 µM] | ? | -29% | -16%[46.1 µM]
S=C(N/N=C1\CCc2ccccc21)NC1CCCCC1
 : . | -4% | -17% | -4% | ? | . | 8% | 2%

Record cards, from the list above. Order of screens: Cruzain Triton, SARS PLpro yeast, RE007 growth inh, NS1 function inh, Marburg entry inh, Cruzain noTriton, 2A StopGo, Lassa entry inh
Results for N#Cc1nc(-c2cccs2)oc1N1CCN(c2ccccc2)CC1 : ?, -3%, 16%, ?, ?, ?, -19%, -1%
Results for Cc1ccc(C)c(S(=O)(=O)N(C)C2(C)CCS(=O)(=O)C2)c1 (configuration not stated) : ., -1%, 4%, ., 1%[46.1 µM], ., -16%, -1%
Results for O=C(Nc1cccc2ncccc12)c1cc([N+](=O)[O-])ccc1Cl : ., -1%, 7%, 2%, 7%[46.1 µM], ., ?, 1%[46.1 µM]
Results for O=c1c2cc(Br)cc(Br)c2oc2nc3n(c(=O)c12)CCCS3 : -4.8%, 5%, ., 8%, ., -10%, ., .
Results for CCn1c(CNC(=O)C23CC4CC(CC(C4)C2)C3)nnc1SCC(=O)Nc1ccc(C)cc1 : 1.1%, ., ., ., -19%[46.1 µM], ?, -29%, -16%[46.1 µM]

Retrieved one by one from the entries so far, 3 records:
Values run as follows: Cruzain Triton | SARS PLpro yeast | RE007 growth inh | NS1 function inh | Marburg entry inh | Cruzain noTriton | 2A StopGo | Lassa entry inh
CCCC(=O)Nc1ccccc1-c1nnn(CC(=O)Nc2ccc(OCC)cc2)n1
 : -0.1% | -12% | -12% | -2% | -5% | -21% | -11% | 4%
O=C(CCNC(=O)c1ccccc1Cl)Nc1ccccc1N1CCCC1
 : . | 17% | 3% | 0% | 0%[46.1 µM] | . | -8% | 9%[46.1 µM]
Cc1ccc(C)c(S(=O)(=O)N(C)C2(C)CCS(=O)(=O)C2)c1 (configuration not stated)
 : . | -1% | 4% | . | 1%[46.1 µM] | . | -16% | -1%

Following part
Values run as follows: Cruzain Triton | SARS PLpro yeast | RE007 growth inh | NS1 function inh | Marburg entry inh | Cruzain noTriton | 2A StopGo | Lassa entry inh
Cc1cc(F)ccc1S(=O)(=O)N(C(=O)c1ccncc1)c1ccc(OC(=O)c2ccncc2)cc1
 : . | -2% | 9% | -6% | ? | . | 0% | -2%[46.1 µM]
COc1ccc(OC(C)C(=O)N2CCOCC2)cc1 (configuration not stated)
 : -0.7% | 3% | -22% | 8% | 1% | -9% | -11% | 12%
COc1cc(C(=O)COC(=O)c2ccc([N+](=O)[O-])o2)cc(OC)c1OC
 : . | -25% | -8% | . | -1% | . | -9% | -16%
O=C1c2ccccc2C(Nc2ccc(-c3nc4ccccc4[nH]3)cc2)N1Cc1ccco1 (configuration not stated)
 : -7.5% | -6% | 0% | ? | 0% | -26% | 0% | .

Screening data from PubChem BioAssay.
